Source: PubChem (National Center for Advancing Translational Sciences (NCATS))
Menin-MLL FL inh – displaces fluorescein MLL peptide from human menin. Fluorescence polarization, fluorescein-MLL peptide displacement from menin. FP activity change, % at 61.4 µM. 290,000 tested, under 10 active. AID 1766; inconclusive = falling polarisation curve, or a change in total fluorescence; inactive = total fluorescence flat and polarisation flat or rising; no compound was filed as active; the % refers to the polarisation; negative = inhibition;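 further: % of control where 0% means no effect; inhibitors lower the polarisation; unlabelled MLL peptide was the positive control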
PINK1 modulator – modulators of PINK1 expression; PINK1 immunofluorescence, high-content cytometry, 24 h; Potency, µM (titrated, usually from 76.6 µM), without a hit: top-dose activation (PINK1 increase), usual class: activators; 410,000 tested, 0.2% active; AID 624263; active = well fitted activation curve with a large enough effect; inconclusive = small, poorly fitted or top-dose-only effect; inactive = flat fitted curve, though single readings scatter; cell line not stated here;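 further: potency means the concentration at half of the fitted maximal effect; % of control where 0% means no effect; nearly all actives have a fitted effect of over 65% in size; a mitochondrial uncoupler was the plate control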
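Stable cell line, 250 cells/well, 12 h attachment; compounds pinned at 5 concentrations, 24 h; CCCP control. Fixed with nuclear dye, primary antibodies 12 h at 10 degrees C, secondary plus cell stain; laser-scanning cytometer read.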
gsp ag – activates gsp, the McCune-Albright syndrome mutation; Potency, µM (highest dose often 76.9 µM), inactives show at the highest dose activation (cAMP increase), hits mostly activators; gsp mutant cells, cAMP HTRF, 30 min; control for the full effect not named in the record; 340,000 tested, 0.13% active; active = well fitted activation curve with a large enough effect; inconclusive = small, poorly fitted or top-dose-only effect, or another doubt; inactive = no such curve, though single readings can be large or run the other way; cell line not stated here;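 further: phosphodiesterase inhibitor Ro 20-1724 added with compounds to block cAMP breakdown; potency means the concentration at half of the fitted maximal effect; nearly all actives have a fitted effect of over 60% in size; about a fifth of the inactives were tested at one dose only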
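Cells in DMEM/10% FBS with G418 were pretreated with compounds in DMSO plus […] (300 uM stock) for 30 min at 37C. cAMP was measured by HTRF (cAMP-d2 plus anti-cAMP antibody-K) after 30 min at room temperature.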
Sfp inh – inhibitors of Bacillus subtilis Sfp phosphopantetheinyl transferase; Biochemical Sfp PPTase activity, qHTS; AID 1490; 310,000 tested, 3.5% active; Q9F4F7; Potency, µM, for the others: max response, negative = inhibition, usual class: inhibitors; active means well fitted inhibition curve with a large enough effect; inconclusive means small, poorly fitted or top-dose-only effect, or another doubt; inactive means no such curve, though single readings can be large or run the other way;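 further: the enzyme is Sfp with the accession as filed and its product quenches rhodamine fluorescence; potency means the concentration at half of the fitted maximal effect; 0% = enzyme reaction without inhibitor and -100% = no enzyme wells; top concentration of the series not given in the record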
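Buffer: 50 mM Hepes-Na pH 7.6, 10 mM MgCl2, 0.01% Nonidet P-40, 0.01% BSA. Enzyme 15 nM, pre-exposed to compound 15 min; substrates then added and fluorescence change tracked over 30 min.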
ClpP mod – qHTS Assay for Activators of ClpP; ATP-dependent Clp protease proteolytic subunit (Bacillus subtilis (strain 168)), P80244; purified B. subtilis ClpP, FRET peptide cleavage, 20 min; Potency, µM (highest dose often 57.5 µM), for inactives: top-dose activity change, negative = active; 340,000 tested, 1.9% active; AID 651965, 2013; active = well fitted falling curve with a large enough effect; inconclusive = small, poorly fitted or top-dose-only effect; inactive = no such curve, though single readings can be large or run the other way; further: potency means the concentration at half of the fitted maximal effect; the source files actives as falling curves though it sought activators and does not explain the sign; nearly all actives have a fitted effect of over 65% in size; many hits overshoot -100%
Target sequence (P80244 whole entry, looked up): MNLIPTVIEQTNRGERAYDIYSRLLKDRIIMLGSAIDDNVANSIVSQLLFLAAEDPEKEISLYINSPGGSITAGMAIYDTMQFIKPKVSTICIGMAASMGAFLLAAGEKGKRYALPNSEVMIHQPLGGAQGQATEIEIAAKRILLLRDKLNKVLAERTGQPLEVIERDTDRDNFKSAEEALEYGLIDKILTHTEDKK
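Buffer: 100 mM Tris/HCl pH8, 100 mM KCl, 0.05% low protease BSA, 2.5% glycerol, 0.01% Tween-20. ClpP 10 microg/mL final; 20 min RT; delta FRET normalized to ADEP and DMSO controls.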
D2 ag – activates the human D2 dopamine receptor. P14416. DiscoveRx PathHunter D2 beta-arrestin, luminescence, 90 min; 100% = 57 uM dopamine signal. 360,000 tested, 0.084% active. activation, % (no concentration beside the values); in the data active = activation above about 40%; inconclusive = about 15% to 40%; inactive = below about 15%; further: compound concentration not given in the record; the text of the record calls up to 30% inactive
Target sequence (P14416 whole entry, looked up): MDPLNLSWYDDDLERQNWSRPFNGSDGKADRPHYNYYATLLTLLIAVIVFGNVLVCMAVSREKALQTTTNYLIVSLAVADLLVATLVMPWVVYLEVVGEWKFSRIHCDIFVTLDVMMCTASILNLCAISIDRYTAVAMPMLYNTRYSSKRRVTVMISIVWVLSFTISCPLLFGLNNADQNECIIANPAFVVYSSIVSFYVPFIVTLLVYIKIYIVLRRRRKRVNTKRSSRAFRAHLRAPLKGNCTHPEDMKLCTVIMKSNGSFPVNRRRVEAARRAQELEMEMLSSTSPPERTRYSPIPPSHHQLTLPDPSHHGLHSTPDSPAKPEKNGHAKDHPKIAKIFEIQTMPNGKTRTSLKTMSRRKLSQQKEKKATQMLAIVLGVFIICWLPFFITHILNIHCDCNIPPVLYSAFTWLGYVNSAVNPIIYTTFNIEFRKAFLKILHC
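DiscoveRx PathHunter D2 beta-arrestin cells (2,100/well) attached overnight, then compound-stimulated 90 min at 37 C in HBSS/10 mM HEPES/0.1% Tween-20 buffer; beta-galactosidase complementation read by luminescence after 1 h at ambient temperature. Dopamine 57 uM final (EC100) as control.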
gsp antag – antagonizes gsp, the McCune-Albright syndrome mutation; gsp-mutant cells, cAMP HTRF, 30 min; control for the full effect not named in the record; Potency, µM (doses to about 76.9 µM), inactives show at the highest dose activity change, negative = inhibition, actives largely listed as inhibitors; 340,000 tested, 0.4% active; active = falling curve of any shape with a large fitted effect; inconclusive = falling curve, mostly with a smaller effect; inactive = flat or rising curve; cell line not stated here;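 further: intracellular cAMP measured with PDE inhibitor Ro 20-1724 present during compound exposure; potency means the concentration at half of the fitted maximal effect; on the % scale 0 is the no-effect control and ±100 the full control effect; nearly all actives have a fitted effect of over 65% in size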
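G418-selected cells were plated in DMEM/10% FBS for 16-24 h at 37C, then treated with compounds plus the PDE inhibitor […] (300 uM solution added) for 30 min at 37C. Intracellular cAMP was measured by HTRF after 30 min lysis at room temperature.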
Numbers without * were called inactive; u = inconclusive; x = not tested or not shown; & = joins results of further samples; [ ] = dose if it differs, or a comment.

SMILES	Menin-MLL FL inh	PINK1 modulator	gsp ag	Sfp inh	ClpP mod	D2 ag	gsp antag
Fc1ccc([C@@H]2CCNC[C@H]2COc2ccc3c(c2)OCO3)cc1	3.9&-1.8&3.0	-1.1%&-0.7%&-0.9%	x	-8%&-11%	-0.2%&1.5%&0.9%	2.9&-4.3&-6.4	12%&0%&-5%
COc1ccc(CCn2c(-c3ccncc3)n[nH]c2=S)cc1OC	-1.5	-1.0%	-1%[15.4 µM]	u	x	0.9	x
CCOC(=O)/C(=C(/C)N)C1CC(=O)NC1=O (stereo not drawn)	x	1.2%	-39%[inhibitor]	x	3.0%	-1.1	x
COc1ccc(/C=C/C(=O)NC(=S)Nc2ccc(Br)cn2)cc1	-4.4	13%	1%	-3%	x	2.3	3%
CC(/C=N/NC(=O)CCn1nnc2ccccc21)=C\c1ccccc1	4.4	0.8%	-16%[15.4 µM]	8%	x	-3.5	u
O=C1NCCN1CCNc1nc(NCC2CC2)nc2cc(-c3ccccc3)sc12	x	-0.5%	x	x	u	-5.6	x
COc1ccc(CC(C)Nc2ccccc2F)cc1 (stereo not drawn)	-2.8	8.7%	-12%[15.4 µM]	-20%	-1.1%	0.8	0%
CCOC(=O)c1c(C)oc2c1c(CN1CCN(CCO)CC1)c(O)c1ccccc12	-0.1	0.3%	-40%[15.4 µM]	u	x	6.3	-1%
CC(C)Cc1cc(C(=O)Nc2sc3c(c2C#N)CCCC3)no1	-1.0	16%	-34%[inhibitor]	-17%	-1.9%	-0.3	u
Cc1nn(CCCNC(=O)C2CCCO2)cc1Br (stereo not drawn)	6.1	-3.6%[38.3 µM]	9%	15%	-0.5%	1.0	-1%
O=C(NCCSCc1ccc(Cl)cc1Cl)c1ccc(CN2CCOCC2)cc1	4.0	-0.3%	-2%	-14%	2.0%	2.6	4%
Clc1ccc(Nc2ncnc3ccc(Br)cc23)cc1	0.9	3.1%[38.3 µM]	2%	-13%	-21%	1.5	0%
COc1ccc(S(=O)(=O)N2CC3CCCN3c3ccc(C(F)(F)F)cc32)cc1 (stereo not drawn)	3.7	2.8%	3%	6%	-4.9%	-1.8	u
Cc1ccc(CNC(=O)CSc2ncccn2)cc1	3.0	0.9%	-2%	12%	0.1%	-4.7	7%
COc1ccc(NC(=O)/C(C#N)=C\c2cc(C)n(-c3ccc(Oc4ccc([N+](=O)[O-])cn4)cc3)c2C)cc1	1.6	2.1%	-42%[inhibitor]	1%	-0.9%	1.6	0%

Part of the list above in order of count of non-hydrogen atoms, lowest first.
SMILES	Menin-MLL FL inh	PINK1 modulator	gsp ag	Sfp inh	ClpP mod	D2 ag	gsp antag
Cc1ccc(CNC(=O)CSc2ncccn2)cc1	3.0	0.9%	-2%	12%	0.1%	-4.7	7%
COc1ccc(/C=C/C(=O)NC(=S)Nc2ccc(Br)cn2)cc1	-4.4	13%	1%	-3%	x	2.3	3%
Fc1ccc([C@@H]2CCNC[C@H]2COc2ccc3c(c2)OCO3)cc1	3.9&-1.8&3.0	-1.1%&-0.7%&-0.9%	x	-8%&-11%	-0.2%&1.5%&0.9%	2.9&-4.3&-6.4	12%&0%&-5%

Following part:
SMILES	Menin-MLL FL inh	PINK1 modulator	gsp ag	Sfp inh	ClpP mod	D2 ag	gsp antag
CCOC(=O)c1cc([N+](=O)[O-])sc1NC(=O)c1ccc(S(=O)(=O)N2CC3(C)CC2CC(C)(C)C3)cc1 (stereo not drawn)	5.7	2.5µM*	4%	10%	-16%	1.4	u
O=C(NCCCN1CCCCC1)c1ccc(CS(=O)c2ccc(Cl)cc2)o1 (stereo not drawn)	x	-1.0%	u	13%	-6.7%	1.0	5%
CCn1c(SCC(=O)OC(C)C)nnc1-c1ccccc1	0.0	-0.9%	1%[15.4 µM]	12%	x	-5.5	-1%
Cc1ccc(C)c(SCC(=O)Nc2cc(S(=O)(=O)N3CCOCC3)ccc2C)c1	x	0.4%	-6%	x	-0.9%	-4.7	-4%
O=C(NNc1cccc(Cl)n1)Nc1ccc(F)cc1	2.3	-1.1%	-9%	-2%	x	5.2	7%
CCOC(=O)[C@H]1[C@H]2COc3ccc(C)cc3[C@@H]2N2C(=O)CN(Cc3ccc(F)cc3)C(=O)[C@@]12C	x	0.5%	u	x	-1.0%	-2.8	-2%
O=C(/C=C/c1ccccc1)CC(=O)c1ccccc1O	9.3	3.6%	-3%	u	-0.4%	0.0	2%
CN(CC(=O)N1CCN(c2ccccc2F)CC1)S(=O)(=O)c1cnc[nH]1	-1.2	3.5%[38.3 µM]	3%	11%	0.2%	0.7	10%
COc1cc2c(cc1OC)C(C(=O)NCc1cccnc1)C(c1cccnc1)N(C)C2=O (stereo not drawn)	u	-0.2%	-6%	8%	-4.2%	-1.3	13%
CCN(CC(=O)Nc1ccc(OC)cc1)C(=O)c1ccc2[nH]c3c(c2c1)CC(C)CC3 (stereo not drawn)	x	0.4%	1%	x	-8.4%	0.3	-2%
CSc1cccc(NC(=O)COc2cccc3ccccc23)c1	3.2	x	2%	1%	3.2%	-1.8	-3%
CCCCCC(C)n1[nH]c(=O)cc1N (stereo not drawn)	4.7	-0.1%	0%	3%	-0.9%	-1.8	-2%
CCCOc1ccc(C(=O)Nc2ccccc2[N+](=O)[O-])cc1	x	4.4%	6%	x	-3.6%	2.7	1%
Cn1c(CNC(=O)CNC(=O)c2ccccc2)cc(=O)n(C)c1=O	2.9	2.2%	u	7%	-0.4%	-0.1	3%
O=C(NNS(=O)(=O)c1ccccc1[N+](=O)[O-])c1ccncc1	-1.0	0.7%	19%	-29%	1.8%	-4.1	6%
COc1ccc(Nc2nc(N3CCCCC3)c3ccccc3n2)cc1	-2.8	5.4%	-6%	50µM*	-1.1%	-3.4	-33%
O=C(NCC1CCCO1)c1cccc2ccccc12 (stereo not drawn)	-3.1	0.3%	-9%[15.4 µM]	15%	x	-4.7	12%
CN(C)S(=O)(=O)c1ccc(N/C=C(\[N+](=O)[O-])S(=O)(=O)c2ccccc2)cc1	0.3	-0.6%	-7%[15.4 µM]	-4%	-1.6%	-3.6	15%
Cc1nnc(NC(=O)Cc2cccs2)s1	1.7	4.3%[38.3 µM]	-12%	11%	-1.6%	-0.8	0%
CCN1C(=O)CSC1=Nc1ccc(C(=O)O)cc1	-2.3	0.8%	-13%	15%	x	-1.9	-6%
CCc1ccc2c(c1)NC(=O)C2(C)Cc1ccccc1 (stereo not drawn)	x	3.5%	x	x	1.0%	-5.3	x
COc1cccc(CN(CC(=O)NCc2ccccc2)C(=O)c2csnn2)c1	2.0	0.3%	u	13%	x	-3.2	0%
Cc1cccc(OCCCC(=O)Nc2ccc(S(=O)(=O)Nc3onc(C)c3C)cc2)c1	-0.5	-0.3%	21%	29%	-13%	1.7	2%
Cc1cc(C)n(-c2nc(C(F)(F)F)nc3ccccc23)n1	1.2	1.0%	2%[15.4 µM]	6%	x	0.9	7%
COc1cc(OC)cc(-c2c(-c3ccc(F)cc3)c3cc(Br)ccc3n2C)c1	x	1.5%	17%	x	4.6%	1.2	1%
CCc1c(C)nc(N)n2c(SCC(=O)Nc3ccccc3)nnc12	2.4	-1.1%	6%	23%	-1.0%	-3.3	10%
COc1ccc(-n2c(=O)cnc3cnc(N(C)C)nc32)cc1	-1.9	0.2%	x	16%	x	x	x
CC1=C(C(=O)OCc2ccccc2)C(c2ccccc2Cl)NC(=O)N1CCCCCC(=O)O (stereo not drawn)	3.9	0.8%	x	3%	-2.1%	1.6	-9%
Cc1ccc(C(=O)N/C(=C\c2ccc(-c3ccc(Br)cc3)o2)C(=O)NCCCN(C)C)cc1	0.6	-1.2%	u	u	-8.5%	3.1	4%
Cc1nc(CN2CCCC2=NC#N)n(-c2ccccc2)n1	0.7	1.3%[38.3 µM]	9%	10%	-0.1%	0.9	13%
Cc1ccc(/C=C/C(=O)OCC(=O)N(CC(C)C)c2c(N)n(Cc3ccccc3)c(=O)[nH]c2=O)o1	x	3.5%	-43%[inhibitor]	x	-1.2%	0.6	0%
N#Cc1ccc(NC(=O)Cn2cnc([N+](=O)[O-])c2)cc1	2.2	0.5%	-6%	-2%	x	1.0	5%
O=C(CC(NC(=O)c1ccccc1)c1ccccc1)Nc1ccc(F)c(F)c1 (stereo not drawn)	-1.3	5.1%	-16%[15.4 µM]	1%	x	-4.1	-9%
Cc1ccc(S(=O)(=O)N(C)c2ccc(OCC(=O)Nc3nc4ccccc4s3)cc2)cc1	3.0	0.5%	3%	6%	0.9%	-2.6	-11%
CCOC(=O)c1cc2sc(C)cc2n1CC(=O)N1CCN(C(=O)c2ccco2)CC1	-0.2	8.4%[38.3 µM]	-45%[inhibitor]	7%	-1.2%	-0.4	-12%
COc1ccc(Cl)cc1N(C(=O)Nc1cccc(Cl)c1)C1=NCC(C)S1 (stereo not drawn)	-0.7	13%	-54%	15%	54%	-5.0	11%
CC(NC(=O)c1ccccc1F)c1nnc(SCC(=O)NC2=NCCS2)n1C (stereo not drawn)	-0.5	-0.5%	-13%	19%	x	2.6	4%
O=[N+]([O-])c1ccc(NN=C(c2ccccc2)c2ccccc2)nc1	x	0.9%	-52%	x	2.5%	-2.8	-2%
COC(=O)C1=C(C)N(Cc2ccccc2)C(=NCCCOC(C)C)N[C@H]1c1ccccc1	x	u	4%	x	-1.3%	-0.7	8%
Cc1ccsc1C(=O)N1CCN(S(=O)(=O)c2cccc(F)c2)CC1	x	-2.6%	0%[15.4 µM]	x	x	-1.2	1%
COc1ccc(S(=O)(=O)NCc2ccco2)cc1N(C)S(=O)(=O)c1ccccc1	-1.3	-0.2%	-10%[15.4 µM]	-1%	-0.6%	-1.9	11%
NC(=O)c1ccccc1OCC(=O)O	-1.1	2.4%	18%	13%	-3.3%	-0.7	2%
CC(C)c1ccccc1NC(=O)COC(=O)COc1ccccc1[N+](=O)[O-]	-1.4	-0.9%	10%	17%	x	0.7	0%
O=C(NNC(=O)C1CCN(Cc2cccc(F)c2)CC1)c1cccs1	-3.5	1.9%	9%[15.4 µM]	-2%	0.3%	-2.9	-9%
